FGF22 binding: binders of human FGF22 protein, primary screen, FGF22 synaptogenesis inhibitor project, biophysical, thermal shift, single point; Fibroblast growth factor 22 (Homo sapiens), Q9HCT0; recombinant FGF22 thermal shift, SYPRO orange fluorescence; percent of sucrose octasulfate shift, DMSO zero; calls only at 9.99 µM; 340,000 compounds, 1.5% hits; AID 651658, 2012;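 active = melting point raised past a set limit in the mean and every replicate; inconclusive = no clear call; three in four hits are not shown here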
Target sequence (Q9HCT0 whole entry, looked up): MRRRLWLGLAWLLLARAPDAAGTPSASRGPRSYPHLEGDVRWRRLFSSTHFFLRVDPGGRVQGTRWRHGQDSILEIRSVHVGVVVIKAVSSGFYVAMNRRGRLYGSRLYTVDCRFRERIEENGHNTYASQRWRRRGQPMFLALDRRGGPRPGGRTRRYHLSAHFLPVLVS
UCH37 inh: inhibitors of human UCH37 deubiquitinase, primary screen, biochemical, Ub-AMC cleavage, fluorescence; Ubiquitin carboxyl-terminal hydrolase isozyme L5 (Homo sapiens), Q9Y5K5; purified proteasome/UCH37; inhibition, % (concentration not given with the values); 330,000 compounds, 0.33% hits;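 active = mean of two replicates above 20%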;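 also: 0% = compound-free wells with enzyme and 100% = wells lacking proteasome; stock transfer was 100 nL into about 20 µL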
Target sequence (Q9Y5K5 whole entry, looked up): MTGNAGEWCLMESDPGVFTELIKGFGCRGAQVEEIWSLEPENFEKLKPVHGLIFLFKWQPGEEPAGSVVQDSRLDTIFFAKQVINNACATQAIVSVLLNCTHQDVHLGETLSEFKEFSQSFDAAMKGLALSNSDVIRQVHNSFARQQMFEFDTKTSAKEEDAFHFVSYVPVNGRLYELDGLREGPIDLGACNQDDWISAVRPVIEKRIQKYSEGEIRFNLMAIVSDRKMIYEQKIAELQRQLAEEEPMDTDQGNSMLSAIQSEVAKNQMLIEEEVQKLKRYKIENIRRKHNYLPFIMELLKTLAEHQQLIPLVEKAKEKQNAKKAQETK
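Schedule: 30 min plus 25 min, room temperature / Material: human UCH37 within purified proteasomes / Technique: AMC fluorescence intensity at 355/460 nm / Buffer or medium: pH 7.4 Tris-HCl (50 mM) with ovalbumin, ATP-MgCl2, DTT / Controls: wells without proteasome as full block, compound-free enzyme plus substrate as uninhibited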
Ecoli growth: E. coli growth inhibition, primary screen, OD600; Escherichia coli growth, 23 h; active compounds read low; OD600 absorbance (concentration not given with the values); 330,000 compounds, 0.21% hits; AID 1053175, 2014;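 active = OD600 absorbance below the run mean of sample wells minus 3.6 SD, in any replicate, cut at about 0.56 in these data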;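 also: stock transfer was 300 nL into about 60 µL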
Vif A3G: inhibitors of Vif binding to APOBEC3G peptide, primary screen, biochemical, TR-FRET, GST-Vif 1-94, biotin-A3G peptide, dose response retest (AID 1117319); Virion infectivity factor (Human immunodeficiency virus type 1 group M subtype B (isolate …; TR-FRET GST-Vif / biotin-A3G peptide binding; higher % means a stronger effect; test concentration not given here; strong numbers were not always called active; one-dose inhibition, %; IC50 in µM for titrated hits; 260,000 compounds, 0.57% hits;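 active = above the screen mean plus three standard deviations and confirmed in dose response; inconclusive = results disagree or hit not tested in dose response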;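 also: Vif residues 1-94 fused to GST binding biotinylated APOBEC3G peptide 110-148; 0% = full assay without inhibitor and 100% = GST in place of GST-Vif; retest series ran down from 100 µM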
MLL AF4-AF9 inh: inhibitors of AF4 peptide binding to AF9, primary screen, biochemical, AlphaScreen, biotin-AF4 peptide, FLAG-AF9, single point; Protein AF-9 (Homo sapiens), P42568; inhibition, % at 10 µM; 350,000 compounds, 0.47% hits; AID 651704, 2012;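 active = every replicate reaching a set inhibition limit, whatever the replicate mean, cut at about 25% in these data; inconclusive = mean inhibition reaches that limit but some replicates miss it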;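 also: 0% = plate neutral control median and 100% = total signal loss; the record names both 10 and 1 µM as test concentration; the first replicate is given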
Target sequence (P42568 whole entry, looked up): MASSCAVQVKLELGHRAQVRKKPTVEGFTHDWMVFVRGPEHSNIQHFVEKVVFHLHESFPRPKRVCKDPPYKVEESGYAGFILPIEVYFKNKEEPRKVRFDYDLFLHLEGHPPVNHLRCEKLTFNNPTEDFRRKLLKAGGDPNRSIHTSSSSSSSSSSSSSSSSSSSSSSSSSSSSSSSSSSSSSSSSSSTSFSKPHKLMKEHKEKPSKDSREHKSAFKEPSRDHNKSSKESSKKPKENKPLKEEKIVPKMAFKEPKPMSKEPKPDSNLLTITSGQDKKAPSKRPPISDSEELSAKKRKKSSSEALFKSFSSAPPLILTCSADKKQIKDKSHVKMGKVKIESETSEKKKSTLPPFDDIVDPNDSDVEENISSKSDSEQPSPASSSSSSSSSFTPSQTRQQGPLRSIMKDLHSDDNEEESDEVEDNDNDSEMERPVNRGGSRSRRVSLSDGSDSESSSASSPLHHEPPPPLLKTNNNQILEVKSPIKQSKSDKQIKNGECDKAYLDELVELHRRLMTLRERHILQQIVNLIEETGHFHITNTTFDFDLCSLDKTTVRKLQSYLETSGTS
HNF4A DNA FP: change in binding of human HNF4A to DNA, primary screen, biochemical, fluorescence polarization, FITC-DNA; 360,000 compounds, 0.3% hits; activity change, % at 10 µM; AID 1224865, 2016; 1 h; in the data active = activity change above about 30%, passing the limit was not always enough;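 also: controls were the assay level and a saturating level of protein; the project sought stronger binding though the title names inhibitors; some compounds called inactive have numbers as strong as hits; positive values seem to mean higher polarization but the record does not say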
RanGTP-Impb inh: inhibitors of RanGTP-importin-beta interaction, primary screen, biochemical, FRET, CFP-Ran, YFP-importin-beta, homogeneous; cell-free CFP-Ran/YFP-importin-beta FRET ratio; inhibition, % (test concentration not listed); AID 2216, 2009; 300,000 compounds, 1.1% hits; Ran GTPase (GTP-bound) - importin-beta complex;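 active = most replicates above 15%; inconclusive = exactly half above 15%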;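 also: 0% = DMSO wells and 100% = Ran loaded with GDP instead of GTP; wells of about 40 µL received 100 nL stock; the first replicate is given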
The depositor's hits bear a star. Not all compounds are listed. The share of hits here may be higher or lower than overall.

Results for CCOc1ccc(Nc2nc(N)nc(CSC(=S)N3CCOCC3)n2)cc1 ?
FGF22 binding: inactive; UCH37 inh: 3.0; Ecoli growth: 0.63; Vif A3G: 5%; MLL AF4-AF9 inh: -0.9; HNF4A DNA FP: -4.5; RanGTP-Impb inh: -0.1

What do the screens show for `c1ccc(-c2ccccc2OCCCN2CCCCC2)cc1`?
UCH37 inh: -0.1; Ecoli growth: 0.68; Vif A3G: 4%; HNF4A DNA FP: 2.2; RanGTP-Impb inh: 1.7

How did Cc1c(C)n(C(=O)CSc2nccn2C)c2ccccc12 do in these assays?
UCH37 inh: 0.1; Ecoli growth: 0.69; Vif A3G: 10%; HNF4A DNA FP: 4.1; RanGTP-Impb inh: 3.8

How did COc1ccc(NC(=O)CNCc2cccs2)c(OC)c1 do in these assays?
FGF22 binding: inactive; Vif A3G: -3%; MLL AF4-AF9 inh: -1.8; HNF4A DNA FP: 0.6

Results for COC(=O)[C@H]1C[C@H](OC(=O)Nc2c(C)noc2C)[C@@]2(O)CN(S(=O)(=O)c3ccc(C)cc3)CC2[C@H]1C(=O)OC (stereo partly specified) ?
FGF22 binding: inactive; Vif A3G: -9%; MLL AF4-AF9 inh: -0.6; HNF4A DNA FP: 2.1

What do the screens show for `CC(C)(C)OC(=O)N/N=C/c1cn(-c2ccccc2)nc1-c1cccnc1`?
FGF22 binding: inactive; Vif A3G: 26%; MLL AF4-AF9 inh: 2.4; HNF4A DNA FP: -30; RanGTP-Impb inh: -1.2

How did CC(=O)c1cccc(NC(=O)C2CC(=O)N(CCc3ccccc3)C2)c1 (stereo unspecified) do in these assays?
FGF22 binding: inactive; UCH37 inh: 5.3; Ecoli growth: 0.71; Vif A3G: -7%; MLL AF4-AF9 inh: -0.7; HNF4A DNA FP: -2.2; RanGTP-Impb inh: -3.0

How did CCN(CC)C(=O)CSc1nc2sc3c(c2c(=O)n1-c1ccc(C)cc1)CC(C)(C)SC3 do in these assays?
UCH37 inh: -10; Ecoli growth: 0.76; Vif A3G: 10%; HNF4A DNA FP: 0.9; RanGTP-Impb inh: -2.2

Results for Cc1cc(C(F)(F)F)n(-c2nc(C(=O)NN)cs2)n1 ?
FGF22 binding: inactive; UCH37 inh: 3.8; Ecoli growth: 0.68; Vif A3G: 4%; MLL AF4-AF9 inh: -0.4; HNF4A DNA FP: 2.7; RanGTP-Impb inh: 0.2

How did Cc1ccc(N(C(=O)c2ccc(S(=O)(=O)N3CCOCC3)cc2)C2C=CS(=O)(=O)C2)cc1 (stereo unspecified) do in these assays?
FGF22 binding: inactive; UCH37 inh: 2.3; Ecoli growth: 0.64; Vif A3G: 24%; MLL AF4-AF9 inh: -17; HNF4A DNA FP: 3.1; RanGTP-Impb inh: 4.3

3 entries already listed, arranged by number of heavy atoms, lowest first.
How did Cc1c(C)n(C(=O)CSc2nccn2C)c2ccccc12 do in these assays?
UCH37 inh: 0.1; Ecoli growth: 0.69; Vif A3G: 10%; HNF4A DNA FP: 4.1; RanGTP-Impb inh: 3.8

What do the screens show for `c1ccc(-c2ccccc2OCCCN2CCCCC2)cc1`?
UCH37 inh: -0.1; Ecoli growth: 0.68; Vif A3G: 4%; HNF4A DNA FP: 2.2; RanGTP-Impb inh: 1.7

How did Cc1ccc(N(C(=O)c2ccc(S(=O)(=O)N3CCOCC3)cc2)C2C=CS(=O)(=O)C2)cc1 (stereo unspecified) do in these assays?
FGF22 binding: inactive; UCH37 inh: 2.3; Ecoli growth: 0.64; Vif A3G: 24%; MLL AF4-AF9 inh: -17; HNF4A DNA FP: 3.1; RanGTP-Impb inh: 4.3

Additional structures.
What do the screens show for `COc1ccc(N(C(=O)c2ccncc2)S(=O)(=O)c2ccc(Cl)cc2)cc1`?
UCH37 inh: 2.9; Ecoli growth: 0.67; HNF4A DNA FP: -0.1; RanGTP-Impb inh: 0.7

How did N#Cc1ccccc1S(=O)(=O)N1CCC(C(=O)NCc2ccccc2CN2CCCC2)CC1 do in these assays?
FGF22 binding: inactive; Vif A3G: 0%; MLL AF4-AF9 inh: 0.1; HNF4A DNA FP: 2.1

What do the screens show for `CCOCCCNC(=O)c1ccc(N2CC3CC(C2)c2cccc(=O)n2C3)c(NC(=O)Nc2cccc(OC)c2)c1` (stereo unspecified)?
FGF22 binding: inactive; UCH37 inh: 1.4; Ecoli growth: 0.7; MLL AF4-AF9 inh: -1.1; HNF4A DNA FP: -0.6; RanGTP-Impb inh: inconclusive

What do the screens show for `O=C1CN(C(=O)c2ccco2)C(c2ccc(F)cc2)c2cc(Cl)ccc2N1` (stereo unspecified)?
UCH37 inh: 3.9; Ecoli growth: 0.7; Vif A3G: -6%; HNF4A DNA FP: 1.6; RanGTP-Impb inh: inconclusive

What do the screens show for `CCCCCCCCN1[C@@H](CC(=O)OC)c2cc(F)ccc2S1(=O)=O`?
FGF22 binding: inactive; UCH37 inh: 5.1; HNF4A DNA FP: 2.5; RanGTP-Impb inh: -1.5

Results for O=S(=O)(NCCOC12CC3CC(CC(C3)C1)C2)c1cccc2nsnc12 ?
UCH37 inh: 2.1; Ecoli growth: 0.74; Vif A3G: 0%; HNF4A DNA FP: 2.6; RanGTP-Impb inh: -1.6

Results for O=[N+]([O-])c1cc(-c2nnc(Nc3ccccc3)c3ccccc23)ccc1N1CCOCC1 ?
FGF22 binding: inactive; UCH37 inh: 1.9; Ecoli growth: 0.74; MLL AF4-AF9 inh: 12; HNF4A DNA FP: -1.6; RanGTP-Impb inh: 5.3

Results for Cc1cccn2c(CN3CCCC(c4ccccc4)C3)c(C(=O)N3CCOCC3)nc12 (stereo unspecified) ?
UCH37 inh: 3.1; Ecoli growth: 0.69; Vif A3G: inconclusive; HNF4A DNA FP: -2.8; RanGTP-Impb inh: -4.0

Results for CCCCN(C(=O)CCCSc1nc2ccccc2[nH]1)c1c(N)n(Cc2ccccc2)c(=O)[nH]c1=O ?
FGF22 binding: inactive; UCH37 inh: -0.9; Ecoli growth: 0.71; MLL AF4-AF9 inh: -5.2; HNF4A DNA FP: -2.1; RanGTP-Impb inh: -0.3

Results for O=C(O)CS(=O)(=O)CC(=O)NCc1cccc(C(F)(F)F)c1 ?
FGF22 binding: inactive; UCH37 inh: 3.4; Ecoli growth: 0.7; MLL AF4-AF9 inh: -0.6; HNF4A DNA FP: 0.0; RanGTP-Impb inh: -5.4

How did COc1ccc(CCC(=O)O)c(O)c1 do in these assays?
FGF22 binding: inactive; UCH37 inh: 2.2; Ecoli growth: 0.8; MLL AF4-AF9 inh: 3.5; HNF4A DNA FP: 0.4; RanGTP-Impb inh: 0.5

What do the screens show for `O=C(c1cn(CC2CCCCC2)nn1)N1CCN(c2ccc(F)cc2)CC1`?
FGF22 binding: inactive; MLL AF4-AF9 inh: 1.3; HNF4A DNA FP: -2.3; RanGTP-Impb inh: 1.6

What do the screens show for `CC(C)(C)OC(=O)N[C@H](/C=C/c1ccccc1)C(=O)OC(C)(C)C`?
FGF22 binding: inactive; UCH37 inh: -0.2; MLL AF4-AF9 inh: -2.2; HNF4A DNA FP: -0.9

How did O=C(Nc1cccc2ccccc12)c1cc2c(cc1Br)OCO2 do in these assays?
FGF22 binding: inactive; Vif A3G: -15%; MLL AF4-AF9 inh: -14; HNF4A DNA FP: -3.0; RanGTP-Impb inh: -3.1

Results for C[C@H](NC(=O)C1CCN(S(=O)(=O)c2ccccc2)CC1)C(=O)NCc1cccc(Cl)c1 ?
FGF22 binding: inactive; UCH37 inh: 4.4; Ecoli growth: 0.67; MLL AF4-AF9 inh: 1.0; HNF4A DNA FP: 0.6; RanGTP-Impb inh: -1.4

What do the screens show for `CCN(CC)c1nc2ccccc2[nH]1`?
UCH37 inh: 6.3; Ecoli growth: 0.72; Vif A3G: 8%; HNF4A DNA FP: 5.0; RanGTP-Impb inh: -0.1

Results for O=C(O)CSCCOc1ccc(OCCSCC(=O)O)cc1 ?
FGF22 binding: inactive; UCH37 inh: 1.9; Ecoli growth: 0.74; Vif A3G: 4%; MLL AF4-AF9 inh: 0.1; HNF4A DNA FP: 1.4; RanGTP-Impb inh: -0.3

What do the screens show for `O=C(c1ccccc1)c1cccc2ccccc12`?
FGF22 binding: inactive; UCH37 inh: 4.1; Ecoli growth: 0.67; Vif A3G: -5%; MLL AF4-AF9 inh: 1.1; HNF4A DNA FP: 4.7

Results for CCC(CC)C(=O)Nc1ccc(C(=O)Nc2cc(C)on2)cc1 ?
FGF22 binding: inactive; UCH37 inh: 2.6; Ecoli growth: 0.72; Vif A3G: 1%; MLL AF4-AF9 inh: 1.5; HNF4A DNA FP: -0.4; RanGTP-Impb inh: inconclusive

What do the screens show for `COc1cc2c(cc1OC)CN(C(=S)NC(=O)c1ccccc1)CC2`?
FGF22 binding: inactive; UCH37 inh: 0.4; Ecoli growth: 0.67; Vif A3G: inconclusive; MLL AF4-AF9 inh: -8.3; HNF4A DNA FP: -2.1; RanGTP-Impb inh: -1.9

What do the screens show for `Cc1cc(C)cc(OCC(=O)OCC(=O)N2CC(=O)Nc3ccccc32)c1`?
FGF22 binding: inactive; UCH37 inh: 5.6; Ecoli growth: 0.73; Vif A3G: -5%; MLL AF4-AF9 inh: -2.0; HNF4A DNA FP: 2.0; RanGTP-Impb inh: 2.6

What do the screens show for `O=C(Nc1ccc2c(c1)OCCO2)C1C(=O)Nc2ccccc2C(=O)N1C1CCCCC1` (stereo unspecified)?
FGF22 binding: inactive; MLL AF4-AF9 inh: -2.5; HNF4A DNA FP: -2.5

What do the screens show for `COc1ccc(NC(=O)CCN2C(=O)c3ccccc3S2(=O)=O)cc1`?
UCH37 inh: 5.2; Ecoli growth: 0.74; Vif A3G: 21%; HNF4A DNA FP: 0.4; RanGTP-Impb inh: inconclusive

Results for O=c1c2sccc2nc(SCc2cc(=O)n3ccccc3n2)n1-c1ccc(Br)cc1 ?
FGF22 binding: inactive; UCH37 inh: -31; Ecoli growth: 0.69; Vif A3G: 15%; MLL AF4-AF9 inh: 5.3; HNF4A DNA FP: 1.7; RanGTP-Impb inh: inconclusive

Results for CC(NC(=O)CSc1nc2ccccc2c(=O)[nH]1)c1ccccc1 (stereo unspecified) ?
UCH37 inh: 1.7; Ecoli growth: 0.7; Vif A3G: 9%; HNF4A DNA FP: -0.4; RanGTP-Impb inh: 1.6

Results for O=C(NC(=O)c1ccccc1)NC(=O)c1ccccc1 ?
UCH37 inh: 0.8; Ecoli growth: 0.72; Vif A3G: -2%; HNF4A DNA FP: -0.8; RanGTP-Impb inh: 7.0

What do the screens show for `COc1cc(/C=C/C(=O)N2c3ccccc3Sc3ccc(C(F)(F)F)cc32)cc(OC)c1OC`?
UCH37 inh: 4.0; Ecoli growth: 0.65; Vif A3G: 5%; HNF4A DNA FP: 3.8; RanGTP-Impb inh: -1.1

How did COc1ccc(CC(=O)OC(C)C(=O)c2ccc(C)cc2)cc1 (stereo unspecified) do in these assays?
FGF22 binding: inactive; UCH37 inh: 2.9; Ecoli growth: 0.71; MLL AF4-AF9 inh: -0.2; HNF4A DNA FP: -2.6; RanGTP-Impb inh: 5.3

What do the screens show for `CCCCCc1ccc(CC(=O)N2CCOCC2)cc1`?
FGF22 binding: inactive; UCH37 inh: 0.7; Ecoli growth: 0.69; MLL AF4-AF9 inh: -3.5; HNF4A DNA FP: -0.8; RanGTP-Impb inh: 2.7

Screens: PubChem BioAssay, several laboratories
